Bioassay records: PubChem BioAssay, Broad Institute
Vaccinia stage – Vaccinia orthopox stage-specific inhibition | Vaccinia-infected cells, mCherry/Venus stage reporter fluorescence; active compounds read low; some inactives read as strong as hits | activity change (mCherry), % (concentration not given with the values) | 0.01% of 89,000 active | AID 1053133;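 active = mCherry past -33% and 40 or more points under the early reporter, replicates agreeing; inconclusive = past -33% without that gap or agreement; tested in A549 cells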;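 also: scaled between vehicle wells and reference inhibitor wells; 23 nL library stock went into each well; one replicate is shown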
Vaccinia stage Venus – further read-out of Vaccinia stage, marked with its call; activity change (Venus), %; measured here: Venus reporter, other viral stage;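 negative = less Venus signal; first of two replicates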
Active calls of the source: *; ? = inconclusive; / = not tested or not shown; & = joins results of further samples.

SMILES	Vaccinia stage	Vaccinia stage Venus
O=C(Nc1cc(F)ccc1F)N1CC(=O)N2[C@H](CO)[C@H](c3ccc(-c4cccnc4)cc3)[C@@H]2C1	7	0
C[C@H](CO)N1C[C@H](C)[C@@H](CN(C)C)Oc2ncc(-c3ccncc3)cc2C1=O	25	20
C[C@@H]1CN([C@@H](C)CO)C(=O)c2cc(N(C)C)ccc2O[C@@H]1CN(C)C(=O)Nc1ccc(F)cc1	23	14
Cc1ccc(S(=O)(=O)N(C)C[C@@H]2Oc3ncc(-c4ccncc4)cc3C(=O)N([C@H](C)CO)C[C@H]2C)cc1	-7	4
C[C@@H]1CN([C@@H](C)CO)C(=O)c2cc(NC(=O)Nc3ccc4c(c3)OCO4)ccc2O[C@@H]1CN(C)Cc1ccc(C(=O)O)cc1	9	2
Cc1noc(C)c1NC(=O)Nc1ccc2c(c1)CC(=O)N([C@@H](C)CO)C[C@H](C)[C@H](CN(C)Cc1ccc3c(c1)OCO3)O2	8	1
C[C@@H]1CN([C@H](C)CO)C(=O)c2cccc(NC(=O)Nc3ccccc3)c2O[C@@H]1CN(C)Cc1ccc(C(F)(F)F)cc1	-7	4
C[C@H](NC(=O)C[C@@H]1CC[C@@H](NC(=O)Cc2ccccn2)[C@@H](CO)O1)c1ccccc1	0	11
CCC(=O)N1C[C@H](C)[C@@H](OC)CN(C)C(=O)c2cc(NC(=O)c3cnccn3)ccc2OC[C@H]1C	-4	-4
COc1ccc(NC(=O)Nc2ccc3c(c2)C(=O)N([C@H](C)CO)C[C@H](C)[C@H](CN(C)C(=O)Nc2c(C)noc2C)OCCCC[C@H](C)O3)cc1	11	12
C[C@H]1CN([C@@H](C)CO)C(=O)Cc2cc(NC(=O)Cn3cnnn3)ccc2O[C@H]1CN(C)C(=O)Nc1ccc(C(F)(F)F)cc1	10	6
O=C(C[C@H]1CC[C@@H]2[C@H](COC[C@@H](O)CN2CC2CCCC2)O1)NCc1ccc(Cl)cc1	-5	-3
C[C@H](CO)N1C[C@H](C)[C@H](CN(C)C(=O)Cc2ccccn2)Oc2ncc(-c3ccccc3)cc2C1=O	15	2
CC(C)NC(=O)N(C)C[C@H]1Oc2ccc(NC(=O)C3CC3)cc2C(=O)N([C@@H](C)CO)C[C@@H]1C	5	6
COc1cccc(S(=O)(=O)Nc2ccc3c(c2)C(=O)N(C)[C@@H]2CC[C@@H](CC(=O)NCC4CCCCC4)O[C@H]2CO3)c1	10	-5
CN(C)CC(=O)N1CC2(C1)[C@@H](c1ccccc1)[C@@H](CO)N2C(=O)C1CCC1	15	16
CN(C)C(=O)c1ccc(-c2ccc([C@H]3[C@@H](C#N)N(C(=O)C4CCC4)[C@@H]3CO)cc2)cc1	?	/
CNC[C@@H]1Oc2ccc(NS(=O)(=O)c3ccc(F)cc3)cc2C(=O)N([C@@H](C)CO)C[C@@H]1C	31	26
C/C=C/c1cnc2c(c1)C(=O)N([C@@H](C)CO)C[C@H](C)[C@@H](CN(C)S(=O)(=O)c1ccc(OC)cc1)O2	-10	-10
CNC[C@H]1OCCCC[C@H](C)Oc2ccc(NC(=O)CCCN(C)C)cc2C(=O)N([C@H](C)CO)C[C@@H]1C	-4&25	6&15
COc1cccc(S(=O)(=O)N(C)C[C@@H]2Oc3cc(C#CCN(C)C)ccc3S(=O)(=O)N([C@H](C)CO)C[C@H]2C)c1	9	0
COc1ccc2c3c([nH]c2c1)[C@H](CO)N(C(=O)C1CCCC1)CC31CN(C(=O)NC(C)C)C1	19	12
Cc1noc(C)c1NC(=O)N(C)C[C@@H]1OCCCC[C@H](C)Oc2ccc(NC(=O)C3CCCCC3)cc2C(=O)N([C@H](C)CO)C[C@H]1C	13	6
CC(C)CC#Cc1ccc2c(c1)O[C@H](CN(C)C(=O)c1cccc(F)c1)[C@H](C)CN([C@@H](C)CO)S2(=O)=O	?	/

An excerpt from above in order of SMILES length, high to low:
SMILES	Vaccinia stage	Vaccinia stage Venus
C/C=C/c1cnc2c(c1)C(=O)N([C@@H](C)CO)C[C@H](C)[C@@H](CN(C)S(=O)(=O)c1ccc(OC)cc1)O2	-10	-10
CN(C)C(=O)c1ccc(-c2ccc([C@H]3[C@@H](C#N)N(C(=O)C4CCC4)[C@@H]3CO)cc2)cc1	?	/
CN(C)CC(=O)N1CC2(C1)[C@@H](c1ccccc1)[C@@H](CO)N2C(=O)C1CCC1	15	16

Next structures follow:
SMILES	Vaccinia stage	Vaccinia stage Venus
O=C(C[C@H]1C=C[C@@H](NC(=O)Nc2ccc(C(F)(F)F)cc2)[C@H](CO)O1)NCc1cccc(F)c1	3	-3
Cc1noc(C)c1S(=O)(=O)Nc1ccc2c(c1)C(=O)N([C@H](C)CO)C[C@H](C)[C@H](CN(C)C(=O)c1ccncc1)OCCCC[C@H](C)O2	19	12
C[C@H](CO)N1C[C@H](C)[C@H](CN(C)S(=O)(=O)c2cn(C)cn2)Oc2ccc(NC(=O)NC3CCCCC3)cc2C1=O	7	7
COc1ccc2c3c(n(C)c2c1)[C@@H](CO)N(C(=O)C1CCCCC1)CC31CCN(C(=O)c2ccncc2)CC1	8	1
C[C@H]1CN([C@@H](C)CO)S(=O)(=O)c2ccc(C#Cc3ccncc3)cc2O[C@H]1CN(C)C(=O)C1CCCCC1	?	/
COc1cccc(S(=O)(=O)N[C@H]2CC[C@H](CCn3cc(-c4ccccc4)nn3)O[C@@H]2CO)c1	-27	-24
O=C(CN1CCOCC1)NCC[C@H]1CC[C@H](NC(=O)Nc2ccc(Cl)cc2)[C@@H](CO)O1	0	-6
CO[C@@H]1CN(C)C(=O)c2cc(NC(=O)c3ccccc3)ccc2OC[C@@H](C)N(C)C[C@@H]1C	12	-3
CO[C@H](CN(C)S(=O)(=O)c1cn(C)cn1)[C@H](C)CN(C(=O)Nc1ccc(C(F)(F)F)cc1)[C@@H](C)CO	18	12
CC(=O)N1[C@H](CO)[C@H](c2ccc(-c3ccccc3F)cc2)[C@@H]1CNC(C)C	-11	-2
CCN1[C@@H]2c3ccc(C4=CCCC4)c(=O)n3C[C@@H]2[C@@H](CO)[C@@H]1C(=O)N(C)C	3	4
N#C[C@H]1[C@@H](c2ccccc2-c2ccc(F)cc2)[C@@H](CO)N1C(=O)NC1CCCCC1	-2	-7

Rewritten as a markdown table: two of the compounds above
| Structure | Vaccinia stage | Vaccinia stage Venus |
| --- | --- | --- |
| Cc1noc(C)c1S(=O)(=O)Nc1ccc2c(c1)C(=O)N([C@H](C)CO)C[C@H](C)[C@H](CN(C)C(=O)c1ccncc1)OCCCC[C@H](C)O2 | 19 | 12 |
| C[C@H](CO)N1C[C@H](C)[C@H](CN(C)S(=O)(=O)c2cn(C)cn2)Oc2ccc(NC(=O)NC3CCCCC3)cc2C1=O | 7 | 7 |

(further entries)
SMILES	Vaccinia stage	Vaccinia stage Venus
COc1cccc(S(=O)(=O)N[C@@H]2CC[C@@H](CC(=O)NCc3ccccc3)O[C@H]2CO)c1	4	-5
COc1ccc2c3c(n(C)c2c1)[C@@H](CO)N(C(=O)c1cccnc1)CC31CN(S(C)(=O)=O)C1	-7	-21
COc1ccc(-c2ccc([C@@H]3[C@H](CO)N4C(=O)CN(C(=O)c5cccnc5)C[C@@H]34)cc2)cc1	18	4
CO[C@H]1CN(C)C(=O)c2cc(NC(=O)C3CCCC3)ccc2OC[C@H](C)NC[C@@H]1C	1	3
C[C@H](CO)N1C[C@H](C)[C@H](CN(C)C(=O)c2ccc(F)cc2)Oc2ncc(/C=C/c3ccccc3)cc2C1=O	-14	-9
Cc1ccc(OC(=O)N(C)C[C@@H]2OCc3cnnn3CCCC(=O)N([C@@H](C)CO)C[C@@H]2C)cc1	16&5	7&1
O=C(NC1CCCC1)N1CCCCN2[C@H](CO)[C@@H](c3ccc(-c4ccccc4)cc3)[C@H]2C1	-34	-26
C/C=C/c1cnc2c(c1)C(=O)N([C@@H](C)CO)C[C@H](C)[C@@H](CN(C)Cc1ccc3c(c1)OCO3)O2	-10	-5
C[C@H]1CN([C@@H](C)CO)C(=O)c2cccc(NS(=O)(=O)c3ccc(F)cc3)c2O[C@H]1CN(C)Cc1ccc(C(=O)Nc2ccccc2N)cc1	1	3
C[C@@H]1CN([C@@H](C)CO)S(=O)(=O)c2ccc(C#C[C@@H](C)O)cc2O[C@H]1CN(C)C(=O)C1CC1	14	11
C[C@H]1CN([C@@H](C)CO)C(=O)c2cccc(NS(=O)(=O)c3ccccc3)c2O[C@H]1CN(C)C(=O)Nc1ccc2c(c1)OCO2	-3	-2
CC(C)NC(=O)Nc1ccc2c(c1)C(=O)N(C)[C@@H]1CC[C@@H](CC(=O)Nc3ccccc3)O[C@H]1CO2	8	0
C[C@H]1CCCCO[C@@H](CN(C)Cc2ccc(Cl)c(Cl)c2)[C@@H](C)CN([C@@H](C)CO)C(=O)c2cc(NC(=O)Nc3ccc(C(F)(F)F)cc3)ccc2O1	-6	6
COc1ccc(S(=O)(=O)Nc2ccc3c(c2)C(=O)N([C@H](C)CO)C[C@H](C)[C@@H](CN(C)C(=O)Nc2ccc(C(F)(F)F)cc2)OCCCC[C@@H](C)O3)cc1	-2	-12
CN1CCN(C(=O)C[C@@H]2C[C@H]3c4cc(NC(=O)c5ccc6c(c5)OCO6)ccc4O[C@H]3[C@@H](CO)O2)CC1	-2	11
C[C@H](CO)N1C[C@H](C)[C@@H](CN(C)C(=O)Nc2ccc(F)cc2)Oc2ccc(NC(=O)Nc3ccccc3)cc2C1=O	6	-2
C[C@@H]1CN([C@H](C)CO)C(=O)c2cccc(NS(=O)(=O)c3ccc(Cl)cc3)c2O[C@@H]1CN(C)C(=O)Nc1ccccc1	-8	-1
COCC(=O)N1[C@H](CO)[C@H]2c3ccccc3NC[C@H]21	26	21
C[C@@H]1CCCCO[C@@H](CN(C)C(=O)Nc2ccccc2)[C@H](C)CN([C@@H](C)CO)C(=O)c2cc(NC(=O)Nc3ccc4c(c3)OCO4)ccc2O1	-2	1
CCCc1cn(CC[C@H]2CC[C@@H](NC(=O)Nc3ccccc3F)[C@H](CO)O2)nn1	-9	-7
Cc1noc(C)c1NC(=O)N(C)C[C@H]1Oc2ccc(NC(=O)Cn3cnnn3)cc2C(=O)N([C@@H](C)CO)C[C@@H]1C	4	4
C[C@H](CO)N1C[C@H](C)[C@@H](CN(C)C(=O)CC2CC2)Oc2ncc(C#C[C@@H](C)O)cc2C1=O	-5	12
C[C@@H]1CN([C@@H](C)CO)C(=O)c2cccc(N(C)C)c2O[C@@H]1CN(C)Cc1ccccc1	6	5
O=C(NCc1ccccc1)C1=C[C@@H](c2ccc(Br)cc2)C[C@@H](OCCCCO)O1	0	3
O=C1CN(S(=O)(=O)Cc2ccccc2)C[C@H]2[C@@H](c3ccc(C#Cc4cccc(F)c4)cc3)[C@H](CO)N12	-35	-34
C[C@H](CO)N1C[C@H](C)[C@H](CN(C)C(=O)Nc2ccc3c(c2)OCO3)OCCCC[C@H](C)Oc2ccc(NC(=O)Nc3ccc(C(F)(F)F)cc3)cc2C1=O	-28	-12
C[C@H](CO)N1C[C@H](C)[C@@H](CN(C)Cc2ccc(Cl)c(Cl)c2)Oc2ccc(NC(=O)CCN3CCOCC3)cc2CC1=O	-34	-30
C[C@H]1CN([C@@H](C)CO)S(=O)(=O)c2ccc(C#CC(C)(C)O)cc2O[C@H]1CN(C)C(=O)CN(C)C	46	14
Cc1ccc(S(=O)(=O)NCC[C@@H]2CC[C@@H](NC(=O)c3ccccn3)[C@H](CO)O2)cc1	4	10
C[C@H](CO)N1C[C@H](C)[C@H](CN(C)C(=O)Nc2ccccc2)Oc2ncccc2C1=O	17	24
COc1ccc(OC(=O)N(C)C[C@@H]2OCc3ccccc3-c3ccccc3C(=O)N([C@H](C)CO)C[C@H]2C)cc1	-1	-11
COc1ccc(NC(=O)N(C)C[C@H]2OCCCC[C@H](C)Oc3ccc(NC(=O)CCC(F)(F)F)cc3C(=O)N([C@@H](C)CO)C[C@H]2C)cc1	14	8
CO[C@@H]1CN(C)C(=O)c2ccc(NS(=O)(=O)c3cn(C)cn3)cc2OC[C@H](C)N(CCC(F)(F)F)C[C@@H]1C	10	9
C[C@@H]1CN([C@@H](C)CO)C(=O)c2cc(NS(=O)(=O)c3ccc(F)cc3)ccc2O[C@H]1CN(C)Cc1ccncc1	-7	-3
COc1ccc(S(=O)(=O)Nc2ccc3c(c2)C(=O)N([C@H](C)CO)C[C@H](C)[C@@H](CN(C)Cc2ccc(C(F)(F)F)cc2)O3)cc1	-17	-8
COc1ccc(C#Cc2ccc3c(c2)O[C@H](CN(C)C(=O)c2ccccn2)[C@@H](C)CN([C@@H](C)CO)S3(=O)=O)cc1	?	/
CC(C)NC(=O)Nc1cccc2c1O[C@H](CN(C)C(=O)NC(C)C)[C@H](C)CN([C@H](C)CO)C2=O	-3	1
CO[C@@H]1CN(C)C(=O)c2ccc(NC(=O)C3CC3)cc2OC[C@@H](C)N(C(=O)C2CCOCC2)C[C@@H]1C	9	11
C[C@H](CO)N1C[C@H](C)[C@@H](CN(C)Cc2ccncc2)OCCCC[C@H](C)Oc2ccc(N(C)C)cc2C1=O	14	11
O=C([C@H]1[C@H](CO)[C@H]2Cn3c(cccc3=O)[C@H]2N1Cc1ccccn1)N1CCC(Cc2ccccc2)CC1	19	8
C[C@H](CO)N1C[C@H](C)[C@H](CN(C)C(=O)Nc2ccc(F)cc2)Oc2c(NC(=O)C3CCOCC3)cccc2C1=O	23	16

Random excerpt: two compounds from above, in no set order.
SMILES	Vaccinia stage	Vaccinia stage Venus
C[C@H](CO)N1C[C@H](C)[C@H](CN(C)C(=O)Nc2ccc(F)cc2)Oc2c(NC(=O)C3CCOCC3)cccc2C1=O	23	16
CO[C@@H]1CN(C)C(=O)c2ccc(NC(=O)C3CC3)cc2OC[C@@H](C)N(C(=O)C2CCOCC2)C[C@@H]1C	9	11

A portion of the library; count on the stated rates, not on these rows.
